RE007 growth inh = less growth of the S. pombe RE007 Vpr strain | Potency, µM (highest dose often 92.2 µM), for inactives: at the top dose activity change, negative = less growth | S. pombe RE007 Vpr strain, BacTiter-Glo ATP luminescence, 24 h; control for the full effect not named in the record | 0.21% of 360,000 active | AID 651644; active = well fitted falling curve with a large enough effect; inconclusive = small, poorly fitted or top-dose-only effect; inactive = no such curve, though single readings can be large or run the other way;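 note: % is set by controls: 0 for no effect and ±100 for the full control effect; nearly all actives have a fitted effect of over 50% in size; the assay follows cell death caused by Vpr and the record does not say whether a fall means rescue or toxicity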
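Fission yeast strain RE007, carrying one chromosomally integrated HIV-1 vpr copy, was seeded at OD 0.01 in PMG+AL medium with 23 nL pinned compound. After 24 h at 30 °C and 99% humidity, viability was read by BacTiter-Glo luminescence.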
Cruzain Triton = blocks cruzain activity in presence of Triton detergent | P25779 | Potency, µM, without a hit: max response, negative = inhibition, hits mostly inhibitors | 0.43% of 200,000 active | purified cruzain, Z-FR-AMC fluorescence, 0.01% Triton;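 note: plate controls were neutral wells for no effect and buffer without enzyme for full effect; nearly all actives have a fitted effect of over 40% in size; top concentration of the series not given in the record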
Target sequence (P25779 123-467 limits assumed): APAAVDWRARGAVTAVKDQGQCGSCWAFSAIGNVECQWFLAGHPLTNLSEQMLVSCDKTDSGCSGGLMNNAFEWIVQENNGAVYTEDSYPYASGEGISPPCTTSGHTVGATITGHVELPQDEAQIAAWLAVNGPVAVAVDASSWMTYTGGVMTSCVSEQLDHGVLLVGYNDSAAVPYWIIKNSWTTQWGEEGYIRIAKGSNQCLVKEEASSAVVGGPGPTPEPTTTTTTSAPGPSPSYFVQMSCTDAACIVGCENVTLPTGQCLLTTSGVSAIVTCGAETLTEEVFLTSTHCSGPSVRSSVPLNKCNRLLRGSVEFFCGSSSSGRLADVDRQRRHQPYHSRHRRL
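Sodium acetate buffer (100 mM, pH 5.5) containing 5 mM DTT and 0.01% Triton X-100 hosted 1.5 nM cruzain and test compound for 15 min at room temperature. Cleavage of 2 uM Z-FR-AMC was then tracked by fluorescence.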
NS1 inh = blocks influenza NS1 protein function | S. cerevisiae slowed by influenza A NS1, growth recovery by OD600 | Potency, µM (top dose mostly 46.1 µM), for inactives: top-dose activity, positive = more growth | 0.4% of 270,000 active; active means well fitted rising curve with a large enough effect; inconclusive means small, poorly fitted or top-dose-only effect; inactive means no such curve, though single readings can be large or run the other way; note: nearly all actives have a fitted effect of over 50% in size
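Recovery from NS1-induced slow growth read by OD600 in budding yeast switched to galactose assay medium (pH 6.0, -URA) at 1:100 dilution. Compound 23 nl per well; the matching strain lacking NS1 serves as control.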
LASV entry inh = Lassa virus entry inhibition. Lassa virus pseudotype entry inhibition, cell reporter; control for the full effect not named in the record. Potency, µM (series often up to 37.9 µM), without a hit: top-dose activity change, negative = inhibition, actives largely listed as inhibitors. 1.2% of 300,000 active; active means well fitted inhibition curve with a large enough effect; inconclusive means small, poorly fitted or top-dose-only effect, or effect the other way; inactive means flat fitted curve, though single readings scatter; tested in HEK293 cells; note: % is set by controls: 0 for no effect and ±100 for the full control effect; nearly all actives have a fitted effect of over 50% in size; luciferase read-out
2A StopGo = FMDV 2A StopGo reporter, luciferase signal; AID 1159524; human cells with a luciferase reporter of 2A StopGo recoding; control for the full effect not named in the record; Potency, µM (titrated, usually from 57.9 µM), without a hit: top-dose signal change, negative = less light; 1.2% of 410,000 active; active = well fitted falling curve with a large enough effect; inconclusive = small, poorly fitted or top-dose-only effect; inactive = no such curve, though single readings can be large or run the other way; tested in HEK293T cells; note: % is set by controls: 0 for no effect and ±100 for the full control effect; nearly all actives have a fitted effect of over 45% in size; luciferase light after 4 h
Cruzain noTriton = cruzain (T. cruzi) inhibition without detergent; P25779; purified cruzain, Z-FR-AMC fluorescence, no detergent; Potency, µM, for the others: max response, negative = inhibition, hits mostly inhibitors; 2.3% of 200,000 active; AID 1476;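 note: plate controls were enzyme without inhibitor for no effect and buffer without enzyme for full effect; nearly all actives have a fitted effect of over 40% in size; top concentration of the series not given in the record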
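Detergent-free condition (0.00005% Triton X-100) in acetate buffer pH 5.5 with DTT. 1.5 nM enzyme and compound were pre-mixed 15 min, then 2 uM Z-FR-AMC substrate added; reaction progress from fluorescence change between first and third reads (60 s).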
Marburg entry inh = blocks Marburg virus binding to or entry into cells. Marburg virus pseudotyped entry inhibition, cell reporter; control for the full effect not named in the record; about a third of the inactives were read at about 46 µM. AID 540276. 1.8% of 300,000 active. Potency, µM (top dose mostly 37.8 µM), for inactives: at the top dose activity change, negative = inhibition, most hits filed as inhibitors; active = well fitted inhibition curve with a large enough effect; inconclusive = small, poorly fitted or top-dose-only effect, or effect the other way; inactive = flat fitted curve, though single readings scatter; tested in HEK293 cells; about a fifth of its hits are not listed in these tables; note: % is set by controls: 0 for no effect and ±100 for the full control effect; luciferase read-out
SARS PLpro yeast = inhibitors of SARS-CoV papain-like protease in yeast | 0.19% of 330,000 active | Potency, µM (top dose mostly 32.9 µM), for inactives: top-dose activity, positive = growth rescue | S. cerevisiae expressing SARS-CoV PLpro, growth rescue; control for the full effect not named in the record; active means well fitted rising curve with a large enough effect; inconclusive means small, poorly fitted or top-dose-only effect; inactive means no such curve, though single readings can be large or run the other way; note: 0% is about no effect; nearly all actives have a fitted effect of over 55% in size; growth read by luminescence after 48 h
* marks the source's active call; other numbers are inactive results; ? = inconclusive; nt = not tested or not shown; & = joins results of further samples; [ ] = remark or other dose. Unless noted, calls come from the whole dose curve; as a rule, active = well fitted curve in the direction sought with a large enough effect; inconclusive = small, poorly fitted or top-dose-only effect, or another doubt; inactive = no such curve, though single readings can be large; an effect the other way counts as inactive or inconclusive. Potency is the fitted concentration of half-maximal effect. A portion of the library. The share of hits here may be higher or lower than overall.

item | compound | RE007 growth inh | Cruzain Triton | NS1 inh | LASV entry inh
1 | CC(Cc1cccc(C(F)(F)F)c1)NCCOC(=O)c1ccccc1 (configuration not stated) | -13%&-9%[18.4 µM] | -5.4% | nt | nt
2 | CN(C)S(=O)(=O)n1cc(/C=C(\NC(=O)c2ccccc2)C(=O)NCCCn2ccnc2)c2ccccc21 | 1% | -3.1% | -2% | 1%[46.1 µM]
3 | CN[C@@H]1[C@H](O)[C@H](NC)[C@H]2O[C@@]3(O)C(=O)C[C@@H](C)O[C@H]3O[C@@H]2[C@H]1O | -7% | 4.1%&0.7% | -1% | nt
4 | O=C(O)Cc1cn(-c2ccccc2)nc1-c1ccc(Cl)cc1 | 2% | nt | -8% | 14%
5 | CCCOc1ccc(C(=O)OCCN(CC)CC)cc1N | 2% | -0.4% | nt | nt
6 | Cc1scc2c1N(C(=O)CN1CCN(C)CC1)c1ccccc1NC2=O | 0% | 5.4%&5.1%&-0.1%&4.9% | -11%&1% | 15%
7 | CCCOc1ccc2nc(NC(=O)OC)[nH]c2c1 | nt | 2.9%&0.6% | ? | -28%
8 | COc1ccc(C(=O)c2ccccc2)c(O)c1 | -17% | -11%&0.0%&2.0%&-6.6% | 4% | 10%
9 | CCCC1(c2ccccc2)NC(=O)N(CC(=O)N(C)Cc2c(F)cccc2Cl)C1=O (configuration not stated) | 4% | nt | -1% | 12%
10 | CCCC(=O)O[C@]1(C(=O)CCl)[C@@H](C)C[C@H]2[C@@H]3CCC4=CC(=O)C=C[C@]4(C)[C@@]3(F)C(=O)C[C@@]21C | -10%[18.4 µM] | -1.2% | ? | -23%
11 | Cc1ccc(C)c(Nc2nc3nonc3nc2Nc2cccc(C)c2C)c1 | nt | -8.4% | nt | ?
12 | Cc1c(Cl)cccc1NC(=O)Cn1cc(C(=O)C2CCCCC2)c2ccccc21 | nt | -2.9% | nt | ?

item | 2A StopGo | Cruzain noTriton | Marburg entry inh | SARS PLpro yeast
1 | ? | 12% | nt | 1%
2 | 41%&108%[activator] | 14% | -2%&-2%[46.1 µM] | 4%
3 | -5%&-9% | 1%&2% | nt | 6%
4 | -5% | nt | 6%&6%[46.1 µM] | -2%
5 | -19% | 13% | nt | 1%
6 | -8%&-7%&-12% | 3%&3%&-1%&-3% | ? | 1%
7 | 9% | 3%&-1% | ? | -3%
8 | 17%&26% | -11%&-1%&-5%&-16% | -5% | -3%
9 | 0% | nt | ? | 3%
10 | ? | 13% | ? | 1%
11 | ? | -3% | ? | nt
12 | ? | ? | ? | nt

(listing goes on)
item | compound | RE007 growth inh | Cruzain Triton | NS1 inh | LASV entry inh
13 | CCOC(=O)c1sc(NC(=O)c2c(-c3ccccc3)c(-c3ccccc3)nn(C)c2=O)nc1C | nt | -6.0% | nt | 15%[46.1 µM]
14 | O=C(c1ccccn1)N(Cc1cccs1)C1(C(=O)NC2CCCCC2)CCCCC1 | 26% | nt | nt | -13%
15 | CCCCCCCCCCCCCCCC(O)C(N)CO (configuration not stated) | -17%[18.4 µM] | 18µM* | 5% | 7%
16 | CCc1cccc(CC)c1NC(=O)CN(CC(=O)O)CC(=O)O | 16% | 4.9% | nt | nt
17 | O=C(CCN1CCN(CCO)CC1)N1c2ccccc2Sc2ccc(C(F)(F)F)cc21 | -3% | nt | -2% | nt
18 | Cc1nc2c3ccccc3nc(NNC(=O)CCC(=O)N3CCN(c4ccccc4F)CC3)n2n1 | -2% | -1.3% | -2% | 19%[46.1 µM]
19 | O=C(O)c1cc(=O)c2ccccc2o1 | -5% | -0.6% | -4% | ?
20 | Cn1ccc2cc3c(cc21)CCN3C(=O)Nc1cccnc1 | -1%[18.4 µM] | 11%&4.4% | ? | ?
21 | CCCCOc1cc(C(=O)OCCN(CC)CC)ccc1N | 10%&-12%[18.4 µM] | -2.1% | nt | nt
22 | CC(C)OCc1cc(CN2CCN(c3ccccc3)CC2)c(O)c2ncccc12 | nt | 0.0% | nt | ?
23 | C=C1c2cccc(O)c2C(O)=C2C(=O)[C@@]3(O)C(O)=C(C(N)=O)C(=O)[C@@H](N(C)C)[C@@H]3[C@@H](O)[C@H]12 | nt | -28% | nt | ?
24 | COc1cc(N)c(Cl)cc1C(=O)N[C@H]1CCN(CCCOc2ccc(F)cc2)C[C@H]1OC | -9% | -3.3% | nt | nt

item | 2A StopGo | Cruzain noTriton | Marburg entry inh | SARS PLpro yeast
13 | -15% | ? | ? | nt
14 | -4% | nt | ? | -1%
15 | -3% | ? | 31% | -10%
16 | -26% | 10% | nt | nt
17 | -5% | nt | -6% | 4%
18 | 8%&-12% | ? | -2%&-2%[46.1 µM] | -4%
19 | -12%&-1% | -10% | -1%&-1%&-1%&-1% | ?
20 | 48%&19%[activator] | 6%&-19% | ? | nt
21 | -8%&0% | -2% | nt | -1%
22 | ? | 3% | ? | nt
23 | nt | 12% | ? | nt
24 | ? | -3% | nt | nt

Copied from the list.
compound 19 | Cruzain noTriton: -10%
compound 20 | Cruzain noTriton: 6%&-19%
compound 16 | 2A StopGo: -26%
compound 23 | Cruzain Triton: -28%
compound 17 | NS1 inh: -2%
compound 21 | Cruzain noTriton: -2%

Continuation.
item | compound | RE007 growth inh | Cruzain Triton | NS1 inh | LASV entry inh
25 | Cc1cc(=O)oc2cc(O)ccc12 | 1% | -0.8% | nt | nt
26 | CCCC(=O)O[C@]1(C(=O)COC(C)=O)CC[C@H]2[C@@H]3C[C@H](F)C4=CC(=O)C=C[C@]4(C)[C@@]3(F)[C@@H](O)C[C@@]21C | -1%[18.4 µM] | -2.0% | -10% | ?
27 | Nc1ncnc2c1c(-c1ccc(Oc3ccccc3)cc1)cn2C1CCCC1 | 10% | -8.6% | ? | ?
28 | CC(=O)Oc1ccc2c(C)cc(=O)oc2c1 | 20% | 0.6% | 21% | 6%
29 | CCc1ccccc1OC[C@@H](O)CN[C@H]1CCCc2ccccc21 | -4%[18.4 µM] | -0.1% | nt | nt
30 | CCOC(=O)c1ccc(NC(=O)c2cc(=O)c3ccc(C)c(C)c3o2)cc1 | nt | -1.7% | nt | 15%[46.1 µM]
31 | CCC(C(=O)Nc1ccccc1N1CCCC1)c1ccccc1 (configuration not stated) | -4% | nt | 0% | 5%
32 | CCOc1ccc2nc(N3CCC(C(=O)Nc4ccccc4CC)CC3)sc2c1 | nt | -2.6% | nt | nt
33 | CCCCCCCCCCCCCCC[C@@H](O)[C@@H](N)CO | -9% | 2.4%&-21% | nt | nt

item | 2A StopGo | Cruzain noTriton | Marburg entry inh | SARS PLpro yeast
25 | -12% | -21% | nt | nt
26 | ? | ? | -42% | -1%
27 | ? | ? | ? | nt
28 | -7% | 1% | -2%[46.1 µM] | 13%
29 | ? | 1% | nt | nt
30 | -5% | -17% | 0%[46.1 µM] | nt
31 | -12% | nt | -9% | -2%
32 | 1% | -20% | ? | nt
33 | -18% | ? | nt | nt

Quoted at random: two entries already listed
item | compound | RE007 growth inh | Cruzain Triton | NS1 inh | LASV entry inh
27 | Nc1ncnc2c1c(-c1ccc(Oc3ccccc3)cc1)cn2C1CCCC1 | 10% | -8.6% | ? | ?
26 | CCCC(=O)O[C@]1(C(=O)COC(C)=O)CC[C@H]2[C@@H]3C[C@H](F)C4=CC(=O)C=C[C@]4(C)[C@@]3(F)[C@@H](O)C[C@@]21C | -1%[18.4 µM] | -2.0% | -10% | ?

item | 2A StopGo | Cruzain noTriton | Marburg entry inh | SARS PLpro yeast
27 | ? | ? | ? | nt
26 | ? | ? | -42% | -1%

Profiles as entered above:
`CC(C)OCc1cc(CN2CCN(c3ccccc3)CC2)c(O)c2ncccc12` is entered as RE007 growth inh = nt; Cruzain Triton = 0.0%; NS1 inh = nt; LASV entry inh = ?; 2A StopGo = ?; Cruzain noTriton = 3%; Marburg entry inh = ?; SARS PLpro yeast = nt
`CCc1cccc(CC)c1NC(=O)CN(CC(=O)O)CC(=O)O` is entered as RE007 growth inh = 16%; Cruzain Triton = 4.9%; NS1 inh = nt; LASV entry inh = nt; 2A StopGo = -26%; Cruzain noTriton = 10%; Marburg entry inh = nt; SARS PLpro yeast = nt

Screening data: PubChem BioAssay, National Center for Advancing Translational Sciences (NCATS)
